FGF22 binding – shifts melting point of recombinant human FGF22. Q9HCT0. recombinant FGF22 thermal shift, SYPRO orange fluorescence; percent of sucrose octasulfate shift, DMSO zero. calls only at 9.99 µM. hit rate 1.5% among 340,000;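 active = melting point raised past a set limit in the mean and every replicate; three in four hits are not shown here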
Target sequence (Q9HCT0 whole entry, looked up): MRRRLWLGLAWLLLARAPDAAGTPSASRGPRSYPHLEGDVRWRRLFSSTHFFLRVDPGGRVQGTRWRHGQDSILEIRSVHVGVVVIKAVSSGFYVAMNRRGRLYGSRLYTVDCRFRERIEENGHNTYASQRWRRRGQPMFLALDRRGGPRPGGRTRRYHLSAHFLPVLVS
Calls only; i = inactive. Only part of the results is shown; count on the stated rates, not on these rows.

SMILES	FGF22 binding
Cc1ccccc1-c1cnc2c(c1)C(=O)N([C@@H](C)CO)C[C@@H](C)[C@@H](CN(C)CC1CCOCC1)O2	i
CCCNC(=O)[C@H]1[C@H](CO)[C@H]2Cn3c(ccc(-c4cccc(F)c4)c3=O)[C@@H]1N2C(=O)c1ccccn1	i
C[C@H]1CN([C@@H](C)CO)C(=O)c2cc(/C=C/c3ccccc3)cnc2O[C@@H]1CN(C)C(=O)c1ccccc1	i
Cc1ccc(S(=O)(=O)Nc2ccc3c(c2)C(=O)N([C@H](C)CO)C[C@@H](C)[C@@H](CN(C)S(C)(=O)=O)O3)cc1	i
CCCNC(=O)N1[C@H](CO)[C@H](c2ccccc2-c2ccccc2)[C@@H]1C#N	i
O=C(C1CCOCC1)N1[C@H](CO)[C@H]2c3ccccc3NC[C@H]21	i
COc1ccc2c3c([nH]c2c1)[C@H](CO)N(C(C)=O)CC31CN(Cc2cc(-c3ccccc3)on2)C1	i
COC(=O)C[C@@H]1C[C@H]2c3cc(N)ccc3O[C@H]2[C@H](CO)O1	i
CO[C@H]1CN(C)C(=O)c2ccc(NS(C)(=O)=O)cc2OC[C@@H](C)N(CC2CCOCC2)C[C@H]1C	i
C/C=C/c1cnc2c(c1)C(=O)N([C@@H](C)CO)C[C@H](C)[C@H](CN(C)CC1CCOCC1)O2	i
CCCNC(=O)NC[C@H]1[C@H](c2ccc(C3=CCCCC3)cc2)[C@@H](CO)N1C(C)=O	i
CCCC#Cc1ccc2c(c1)O[C@@H](CN(C)C(=O)Nc1ccc(OC)cc1)[C@H](C)CN([C@@H](C)CO)S2(=O)=O	i
CO[C@H]1CN(C)C(=O)c2ccc(NC(=O)Nc3cccc(Cl)c3)cc2OC[C@@H](C)N(C(=O)Nc2c(C)noc2C)C[C@H]1C	i
C[C@H](CO)N1C[C@H](C)[C@H](CN(C)Cc2ccc3c(c2)OCO3)Oc2ccc(NC(=O)Nc3ccc(F)cc3)cc2CC1=O	i
O=C(C[C@@H]1CC[C@H]2[C@@H](COC[C@@H](O)CN2Cc2ccc(Oc3ccccc3)cc2)O1)N1CCc2ccccc2C1	i
CO[C@H]1CN(C)C(=O)c2cc(NC(=O)NC3CCCCC3)ccc2OC[C@@H](C)N(C(C)=O)C[C@@H]1C	i
N#C[C@H]1[C@@H](c2ccc(C3=CCCCC3)cc2)[C@@H](CO)N1C(=O)c1cccc(F)c1	i
CCCNC(=O)[C@H]1[C@H](CO)[C@H]2Cn3c(ccc(-c4ccc(F)cc4)c3=O)[C@H]2N1CCC	i
O=C(C[C@@H]1CC[C@@H]2[C@H](COC[C@@H](O)CN2Cc2cccc(Cl)c2)O1)N1CCOCC1	i
C[C@@H]1CN([C@@H](C)CO)C(=O)c2cc(NC(=O)Cc3ccccc3)ccc2O[C@H]1CN(C)S(=O)(=O)c1cccs1	i

A different layout for part of the listing above:
FGF22 binding | molecule
i | C[C@@H]1CN([C@@H](C)CO)C(=O)c2cc(NC(=O)Cc3ccccc3)ccc2O[C@H]1CN(C)S(=O)(=O)c1cccs1
i | CCCNC(=O)NC[C@H]1[C@H](c2ccc(C3=CCCCC3)cc2)[C@@H](CO)N1C(C)=O
i | N#C[C@H]1[C@@H](c2ccc(C3=CCCCC3)cc2)[C@@H](CO)N1C(=O)c1cccc(F)c1
i | CO[C@H]1CN(C)C(=O)c2ccc(NC(=O)Nc3cccc(Cl)c3)cc2OC[C@@H](C)N(C(=O)Nc2c(C)noc2C)C[C@H]1C

The list continues.
SMILES	FGF22 binding
C[C@H](CO)N1C[C@H](C)[C@@H](CN(C)Cc2ccncc2)Oc2ccc(NC(=O)C3CC3)cc2CC1=O	i
Cc1ccc(S(=O)(=O)N(C)C[C@@H]2OCCCC[C@@H](C)Oc3ccc(NC(=O)Nc4ccc5c(c4)OCO5)cc3C(=O)N([C@H](C)CO)C[C@@H]2C)cc1	i
CO[C@H]1CN(C)C(=O)c2ccc(NC(=O)Nc3ccc(F)cc3)cc2OC[C@@H](C)NC[C@H]1C	i
COCC(=O)N1CC2(CCN(C(C)=O)CC2)c2c([nH]c3cc(OC)ccc23)[C@@H]1CO	i
Cc1noc(C)c1NC(=O)Nc1cccc2c1O[C@H](CN(C)Cc1ccc(C(F)(F)F)cc1)[C@@H](C)CN([C@H](C)CO)C2=O	i
C[C@@H]1CCCCO[C@@H](CN(C)C(=O)C2CCCCC2)[C@@H](C)CN([C@H](C)CO)C(=O)c2cc(NC(=O)Cc3ccccc3)ccc2O1	i
CO[C@H](CN(C)S(=O)(=O)c1ccc(F)cc1)[C@@H](C)CN(Cc1ccccc1Cl)[C@H](C)CO	i
COc1ccc(CN(C)C[C@@H]2OCCCC[C@@H](C)Oc3ccc(NC(=O)Nc4cccc5ccccc45)cc3C(=O)N([C@H](C)CO)C[C@@H]2C)cc1	i
C[C@@H]1CN([C@@H](C)CO)C(=O)Cc2cc(NC(=O)Nc3ccc(F)cc3)ccc2O[C@H]1CN(C)Cc1ccncc1	i
Cc1noc(C)c1NC(=O)N(C)C[C@@H]1Oc2c(NC(=O)NC(C)C)cccc2C(=O)N([C@H](C)CO)C[C@@H]1C	i
C[C@H]1CN([C@@H](C)CO)C(=O)Cc2cc(NC(=O)C3CC3)ccc2O[C@H]1CN(C)C(=O)NC1CCCCC1	i
COc1ccc(NC(=O)Nc2ccc3c(c2)OC[C@@H](C)NC[C@@H](C)[C@@H](OC)CN(C)C3=O)cc1	i
CO[C@@H](CN(C)C(=O)c1ccccc1F)[C@H](C)CN([C@@H](C)CO)S(=O)(=O)c1ccc(C)cc1	i
COc1ccc(NC(=O)N[C@H]2CC[C@H](CCNS(=O)(=O)c3cccc(Cl)c3)O[C@H]2CO)cc1	i
CO[C@@H]1CN(C)C(=O)c2cc(NC(C)=O)ccc2OC[C@@H](C)N(C(=O)c2ccccc2)C[C@@H]1C	i
C[C@H](O)C#Cc1cnc2c(c1)C(=O)N([C@H](C)CO)C[C@@H](C)[C@@H](CN(C)Cc1cccc(F)c1)O2	i
C[C@@H]1CN([C@H](C)CO)C(=O)c2cc(Br)cnc2O[C@H]1CN(C)C(=O)c1ccccc1F	i
CCCNC(=O)N1C[C@@H]2[C@H](c3ccccc31)[C@H](CO)N2Cc1ccc(OC)cc1	i
O=C(C[C@@H]1C[C@@H]2c3cc(NC(=O)c4ccc5c(c4)OCO5)ccc3O[C@@H]2[C@H](CO)O1)NCc1cc(F)ccc1F	i
CO[C@@H]1CN(C)C(=O)c2ccc(NS(=O)(=O)c3ccc(C)cc3)cc2OC[C@H](C)N(C)C[C@@H]1C	i
C[C@H](CO)N1C[C@H](C)[C@H](CN(C)C(=O)Nc2ccc(F)cc2)Oc2ncc(C#Cc3ccc(F)cc3)cc2C1=O	i
Cc1ccc(S(=O)(=O)N(C)C[C@H]2Oc3ccc(NS(=O)(=O)c4ccc(Cl)cc4)cc3C(=O)N([C@H](C)CO)C[C@H]2C)cc1	i
C[C@@H]1CN([C@H](C)CO)C(=O)c2cccc(NC(=O)Nc3ccc(F)cc3)c2O[C@@H]1CN(C)C	i
CS(=O)(=O)Nc1ccc2c(c1)[C@H]1C[C@@H](CC(=O)NCc3ccccn3)O[C@@H](CO)[C@H]1O2	i
COc1ccccc1CNC(=O)C[C@H]1C[C@H]2c3cc(NC(=O)Cc4ccncc4)ccc3O[C@H]2[C@H](CO)O1	i
C[C@]12CCC(=O)N1CCc1c2[nH]c2ccccc12	i
C[C@@H]1CN([C@@H](C)CO)C(=O)c2cc(C#CC(C)(C)O)cnc2O[C@H]1CN(C)Cc1ccccn1	i
CCCNC(=O)N1CC2(CN(C(=O)c3cccc(F)c3)C2)c2c([nH]c3cc(OC)ccc23)[C@@H]1CO	i
Cc1ccc(S(=O)(=O)N(C)C[C@H]2Oc3ccc(N(C)C)cc3CC(=O)N([C@H](C)CO)C[C@H]2C)cc1	i
C[C@H]1CN([C@@H](C)CO)C(=O)c2cc(-c3ccncc3)cnc2O[C@H]1CN(C)C(=O)c1ccccc1F	i
C[C@@H]1CN([C@H](C)CO)C(=O)c2cccc(NS(C)(=O)=O)c2O[C@@H]1CN(C)C	i
COC(=O)[C@]12C[C@H](CC(=O)NCc3cccc(C(F)(F)F)c3)C(=O)N(Cc3ccccc3)C1=C[C@H](C1CCCC1)O[C@@H]2C	i
COc1cccc(/C=C2/Sc3ccc(C(=O)NC4CC4)cc3NC2=O)c1	i
O=C(NCc1ccncn1)[C@H]1[C@H](CO)[C@H]2Cn3c(cccc3=O)[C@@H]1N2CC1CC1	i
Cn1cnc(CCNC(=O)C[C@H]2CC[C@@H]3[C@H](COC[C@@H](O)CN3C(=O)C3CC3)O2)c1	i
COc1cccc(CN2CC3(CCN(C(C)=O)CC3)c3c(n(C)c4cc(OC)ccc34)[C@H]2CO)c1	i
CC(C)NC(=O)N(C)C[C@@H]1Oc2c(NS(=O)(=O)c3cn(C)cn3)cccc2C(=O)N([C@@H](C)CO)C[C@@H]1C	i
Cc1noc(C)c1NC(=O)N(C)C[C@H]1Oc2c(NC(=O)NC(C)C)cccc2C(=O)N([C@H](C)CO)C[C@H]1C	i
CN(C)C(=O)C[C@H]1C=C[C@H](NC(=O)Nc2cccc(F)c2)[C@@H](CO)O1	i
C[C@H](CO)N1C[C@H](C)[C@@H](CN(C)S(=O)(=O)c2ccc(F)cc2)Oc2c(NS(=O)(=O)c3cccs3)cccc2C1=O	i

As a short view, 5 of the compounds above.
SMILES	FGF22 binding
O=C(NCc1ccncn1)[C@H]1[C@H](CO)[C@H]2Cn3c(cccc3=O)[C@@H]1N2CC1CC1	i
Cn1cnc(CCNC(=O)C[C@H]2CC[C@@H]3[C@H](COC[C@@H](O)CN3C(=O)C3CC3)O2)c1	i
COc1cccc(CN2CC3(CCN(C(C)=O)CC3)c3c(n(C)c4cc(OC)ccc34)[C@H]2CO)c1	i
CC(C)NC(=O)N(C)C[C@@H]1Oc2c(NS(=O)(=O)c3cn(C)cn3)cccc2C(=O)N([C@@H](C)CO)C[C@@H]1C	i
Cc1noc(C)c1NC(=O)N(C)C[C@H]1Oc2c(NC(=O)NC(C)C)cccc2C(=O)N([C@H](C)CO)C[C@H]1C	i

The main list resumes; the 2 compounds before the break are reprinted first.
SMILES	FGF22 binding
CN(C)C(=O)C[C@H]1C=C[C@H](NC(=O)Nc2cccc(F)c2)[C@@H](CO)O1	i
C[C@H](CO)N1C[C@H](C)[C@@H](CN(C)S(=O)(=O)c2ccc(F)cc2)Oc2c(NS(=O)(=O)c3cccs3)cccc2C1=O	i
O=C(C[C@@H]1CC[C@@H](NC(=O)C2CCC2)[C@@H](CO)O1)NCCCN1CCOCC1	i
C[C@@H]1CN([C@H](C)CO)C(=O)c2cc(NS(=O)(=O)c3ccc(F)cc3)ccc2O[C@H]1CN(C)S(=O)(=O)c1ccc(F)cc1	i
CC(C)NC(=O)N(C)C[C@@H]1Oc2c(NC(=O)Nc3ccccc3)cccc2C(=O)N([C@@H](C)CO)C[C@H]1C	i
C[C@@H]1CCCCO[C@H](CN(C)Cc2ccc(Cl)c(Cl)c2)[C@@H](C)CN([C@@H](C)CO)C(=O)c2cc(N(C)C)ccc2O1	i
C[C@H]1CCCCO[C@@H](CN(C)C(=O)Nc2ccc3c(c2)OCO3)[C@@H](C)CN([C@@H](C)CO)C(=O)c2cc(NC(=O)Nc3ccc(F)cc3)ccc2O1	i
C[C@H]1CN([C@@H](C)CO)C(=O)c2cc(C3=CCCCC3)cnc2O[C@H]1CN(C)C(=O)Cc1ccncc1	i
O=C(C[C@@H]1CC[C@H]2[C@@H](COC[C@@H](O)CN2S(=O)(=O)c2ccccc2)O1)NCCN1CCCC1	i
COc1ccccc1C#Cc1ccc([C@@H]2[C@H]3CN(CCC(F)(F)F)CCCCN3[C@H]2CO)cc1	i
O=C(C1CC1)N1CCCCN2[C@H](C1)[C@H](c1ccc(C#CC3CC3)cc1)[C@@H]2CO	i
C[C@@H]1CCCCO[C@@H](CN(C)CC2CC2)[C@H](C)CN([C@@H](C)CO)C(=O)c2cc(NC(=O)Nc3ccccc3)ccc2O1	i
O=C(C[C@@H]1CC[C@@H](NC(=O)Nc2cccc(F)c2)[C@H](CO)O1)NCC1CC1	i
CC(C)C#Cc1ccc2c(c1)O[C@H](CN(C)Cc1cncnc1)[C@H](C)CN([C@H](C)CO)S2(=O)=O	i
CO[C@H]1CN(C)C(=O)c2ccc(NS(=O)(=O)c3ccc(C)cc3)cc2OC[C@H](C)N(C)C[C@@H]1C	i
Cc1cccc(S(=O)(=O)N[C@@H]2CC[C@@H](CCNC(=O)CCN3CCCCC3)O[C@@H]2CO)c1	i
CCC(=O)N(C)C[C@H]1Oc2cc(C#CC3CCCC3)ccc2S(=O)(=O)N([C@@H](C)CO)C[C@H]1C	i
C[C@H](CO)N1C[C@H](C)[C@@H](CN(C)C(=O)c2ccccc2)Oc2ncc(C#CC3CC3)cc2C1=O	i
C[C@@H]1CN([C@@H](C)CO)C(=O)Cc2cc(NS(=O)(=O)c3cccs3)ccc2O[C@@H]1CN(C)S(=O)(=O)c1ccccc1	i
C[C@@H]1CCCCO[C@H](CN(C)S(=O)(=O)c2cn(C)cn2)[C@@H](C)CN([C@@H](C)CO)C(=O)c2cc(NC(=O)Nc3ccc4c(c3)OCO4)ccc2O1	i
O=C(N[C@H]1CC[C@H](CCn2cc(C3(O)CCCC3)nn2)O[C@H]1CO)C1CCOCC1	i
C[C@@H]1CN([C@@H](C)CO)C(=O)Cc2cc(NC(=O)C3CC3)ccc2O[C@H]1CN(C)Cc1ccc(C(=O)Nc2ccccc2N)cc1	i
C[C@H]1CN([C@@H](C)CO)C(=O)c2cc(NC(=O)c3ccncc3)ccc2O[C@H]1CN(C)S(=O)(=O)c1ccccc1	i
COc1ccccc1-c1cnc2c(c1)C(=O)N([C@H](C)CO)C[C@H](C)[C@H](CN(C)CC1CCCC1)O2	i
Cc1noc(C)c1S(=O)(=O)N(C)C[C@@H]1OCCCC[C@@H](C)Oc2ccc(NS(=O)(=O)c3cccs3)cc2C(=O)N([C@H](C)CO)C[C@@H]1C	i
C[C@H](CO)N1C[C@H](C)[C@@H](CN(C)C)Oc2ccc(NC(=O)C3CC3)cc2C1=O	i
C[C@@H]1CN([C@H](C)CO)C(=O)Cc2cc(NC(=O)Nc3ccc(F)cc3)ccc2O[C@H]1CN(C)CC1CC1	i
CC(C)NC(=O)N1C[C@@H]2[C@H](c3ccccc31)[C@H](CO)N2C(=O)c1cccnc1	i

Bioassay records deposited in PubChem BioAssay by Broad Institute.
